gsp antag – antagonists of gsp mutant (McCune-Albright syndrome) | Potency, µM (series often up to 76.9 µM), for inactives: top-dose activity change, negative = inhibition, actives largely listed as inhibitors | 0.4% of 340,000 active | gsp-mutant cells, cAMP HTRF, 30 min; control for the full effect not named in the record; active = falling curve of any shape with a large fitted effect; inconclusive = falling curve, mostly with a smaller effect; inactive = flat or rising curve; cell line not stated here;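 note: intracellular cAMP measured with PDE inhibitor Ro 20-1724 present during compound exposure; potency is the fitted concentration of half-maximal effect; % is set by controls: 0 for no effect and ±100 for the full control effect; nearly all actives have a fitted effect of over 65% in size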
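Cells in G418 medium, seeded 16-24 h, 37C; buffer exchange to DPBS + 1 mM CaCl2, 0.5 mM MgCl2, 0.05% BSA; cpds in DMSO + […] (300 uM stock), 30 min 37C; HTRF cAMP detection.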
D2 agonist – human D2 receptor agonism in beta-arrestin assay; P14416; DiscoveRx PathHunter D2 beta-arrestin, luminescence, 90 min; 100% = 57 uM dopamine signal; activation, % (test concentration not listed); 0.084% of 360,000 active; AID 624465; in the data active = activation above about 40%; inconclusive = about 15% to 40%; inactive = below about 15%; note: compound concentration not given in the record; the text of the record calls up to 30% inactive
Target sequence (P14416 whole entry, looked up): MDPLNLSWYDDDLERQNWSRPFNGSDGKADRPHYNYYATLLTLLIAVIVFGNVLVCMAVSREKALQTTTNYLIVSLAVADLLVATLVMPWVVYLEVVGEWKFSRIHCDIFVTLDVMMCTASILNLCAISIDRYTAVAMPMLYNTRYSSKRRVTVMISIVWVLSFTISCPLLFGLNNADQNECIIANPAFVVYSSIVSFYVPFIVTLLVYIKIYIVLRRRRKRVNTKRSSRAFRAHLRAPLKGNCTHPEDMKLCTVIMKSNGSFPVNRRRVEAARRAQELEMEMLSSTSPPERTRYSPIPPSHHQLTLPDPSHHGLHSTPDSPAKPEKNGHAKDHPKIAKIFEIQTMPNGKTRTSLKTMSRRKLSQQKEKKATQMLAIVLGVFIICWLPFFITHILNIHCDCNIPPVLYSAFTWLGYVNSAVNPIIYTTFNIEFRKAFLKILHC
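DiscoveRx PathHunter D2 beta-arrestin cells (2,100/well) attached overnight, then compound-stimulated 90 min at 37 C in HBSS/10 mM HEPES/0.1% Tween-20 buffer; beta-galactosidase complementation read by luminescence after 1 h at ambient temperature. Dopamine 57 uM final (EC100) as control.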
ClpP mod – qHTS Assay for Activators of ClpP; ATP-dependent Clp protease proteolytic subunit (Bacillus subtilis (strain 168)), P80244; purified B. subtilis ClpP, FRET peptide cleavage, 20 min; Potency, µM (highest dose often 57.5 µM), inactives show at the top dose activity change, negative = active; 1.9% of 340,000 active; AID 651965, 2013; active = well fitted falling curve with a large enough effect; inconclusive = small, poorly fitted or top-dose-only effect; inactive = no such curve, though single readings can be large or run the other way; note: potency is the fitted concentration of half-maximal effect; the source files actives as falling curves though it sought activators and does not explain the sign; nearly all actives have a fitted effect of over 65% in size; many hits overshoot -100%
Target sequence (P80244 whole entry, looked up): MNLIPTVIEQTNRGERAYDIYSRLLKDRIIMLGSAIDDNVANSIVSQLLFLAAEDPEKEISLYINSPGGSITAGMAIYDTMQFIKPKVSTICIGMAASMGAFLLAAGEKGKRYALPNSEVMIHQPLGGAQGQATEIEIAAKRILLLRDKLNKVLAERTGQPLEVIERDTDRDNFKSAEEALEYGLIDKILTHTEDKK
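ClpP 10 microg/mL final, pH 8 Tris/KCl buffer with BSA, glycerol, Tween-20; compound pinned in; FRET-FV substrate; RT 20 min; Ex320/Em430; ΔFRET vs ADEP 5.8 microM, DMSO, no enzyme.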
gsp ag – activates gsp, the McCune-Albright syndrome mutation; gsp mutant cells, cAMP HTRF, 30 min; control for the full effect not named in the record; 0.13% of 340,000 active; Potency, µM (series often up to 76.9 µM), without a hit: at the top dose activation (cAMP increase), actives largely listed as activators; AID 624287; active = well fitted activation curve with a large enough effect; inconclusive = small, poorly fitted or top-dose-only effect, or another doubt; inactive = no such curve, though single readings can be large or run the other way; cell line not stated here;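 note: phosphodiesterase inhibitor Ro 20-1724 added with compounds to block cAMP breakdown; potency is the fitted concentration of half-maximal effect; nearly all actives have a fitted effect of over 60% in size; about a fifth of the inactives were tested at one dose only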
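Cells stably selected in G418 were plated at 2000/well, grown 16-24 hr, then given compounds in DMSO with the PDE inhibitor […] (300 uM solution added) for 30 min at 37C; cAMP was read by HTRF.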
PINK1 modulator – modulators of PINK1 expression; PINK1 immunofluorescence, high-content cytometry, 24 h; Potency, µM (highest dose often 76.6 µM), for inactives: top-dose activation (PINK1 increase), hits mostly activators; 0.2% of 410,000 active; active = well fitted activation curve with a large enough effect; inconclusive = small, poorly fitted or top-dose-only effect; inactive = flat fitted curve, though single readings scatter; cell line not stated here;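 note: potency is the fitted concentration of half-maximal effect; % of control where 0% means no effect; nearly all actives have a fitted effect of over 65% in size; a mitochondrial uncoupler was the plate control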
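A stable cell line was treated with compounds at 5 concentrations for 24 hours, with CCCP as control. PINK1 levels and mitochondrial localization were measured by immunofluorescence with mitochondrial, cell and nuclear markers after fixation, read by laser-scanning cytometry.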
Sfp inh – blocks B. subtilis Sfp PPTase activity; Q9F4F7; Biochemical Sfp PPTase activity, qHTS; Potency, µM, for inactives: max response, negative = inhibition, actives largely listed as inhibitors; 3.5% of 310,000 active; AID 1490; active = well fitted inhibition curve with a large enough effect; inconclusive = small, poorly fitted or top-dose-only effect, or another doubt; inactive = no such curve, though single readings can be large or run the other way;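 note: the enzyme is Sfp with the accession as filed and its product quenches rhodamine fluorescence; potency is the fitted concentration of half-maximal effect; 0% = enzyme reaction without inhibitor and -100% = no enzyme wells; top concentration of the series not given in the record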
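Fluorescence-quenching assay: 15 nM Sfp-PPTase preincubated 15 min at room temperature with compound, then 5 uM rhodamine-CoA and 12.5 uM BHQ-2-labelled YbbR peptide added. Fluorescence (ex 525/em 598 nm) read at start and after 30 min; difference gives rate.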
Menin MLL FP FL – inhibitors of human menin-MLL interaction, wild-type MLL peptide; 290,000 tested, under 10 active; FP activity change, % at 61.4 µM; AID 1766; Fluorescence polarization, fluorescein-MLL peptide displacement from menin; inconclusive = falling polarisation curve, or a change in total fluorescence; inactive = total fluorescence flat and polarisation flat or rising; no compound was filed as active; the % refers to the polarisation; negative = inhibition;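 note: % of control where 0% means no effect; inhibitors lower the polarisation; unlabelled MLL peptide was the positive control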
Numbers without * were called inactive; ? = inconclusive; · = not tested or not shown; & = joins results of further samples; [ ] = dose if it differs, or a comment. Outcome played no part in choosing rows. About 5.1% of those tested had a hit in this group.

Sequence of screens – gsp antag	D2 agonist	ClpP mod	gsp ag	PINK1 modulator	Sfp inh	Menin MLL FP FL
> O=C(CCN1C(=O)/C(=C\c2cccs2)SC1=S)NC1=NCCS1
    -14.5%	-3.5	0.3%	23.0%[15.4 µM]	9.2%	16.9%	·
> Cc1ccccc1C(=O)NNC(=O)CCCCC(=O)NNC(=O)c1ccccc1C
    -0.6%	10.8	·	6.7%[15.4 µM]	0.7%	·	·
> COc1ccc(S(=O)(=O)Nc2nnc(C(C)C)s2)cc1
    -11.7%	-0.1	1.6%	-34.6%	0.1%	-4.6%	-3.4
> CC(C)CN1CCC(=O)N([C@H](COc2ccccc2)Cc2ccccc2)CC1
    -3.2%	2.0	1.0%&2.4%	·	1.5%	-2.4%	0.3
> CCOC(=O)C1CCN(C(=O)c2ccc(OC3CCN(C(=O)CCOC)CC3)cc2)CC1
    1.5%	0.4	5.1%	11.2%[15.4 µM]	0.8%	0.1%	-4.4
> COC(CNC(=O)C1CC(=O)N(CCc2ccccc2)C1)OC (configuration not stated)
    4.4%	-5.3	0.8%	-9.5%	2.8%	13.6%	-1.9
> CCOC(=O)COc1ccc2cc(C(=O)OCC)c(=O)oc2c1
    -13.3%	-3.1	8.7%	-8.0%	8.7%	3.5%	2.1
> O=C(NCN1CCN(c2ccccn2)CC1)c1cnccn1
    6.0%	2.5	-3.7%	4.0%	-2.0%	7.0%	5.3
> CC1(C)CC(=O)c2sc(NC(=O)c3ccc4ncsc4c3)nc2C1
    -34.6%	-2.4	3.1%	4.3%	1.5%	50.1µM*	0.0
> COCCNC(=O)C1(C)CCCN(C(=O)c2cccc3ccccc23)C1 (configuration not stated)
    ·	-2.5	-2.0%	·	0.0%	·	·
> Cc1cc(=O)oc2cc(OCCCC[n+]3ccccc3)ccc12
    6.8%	-3.7	·	3.0%	-0.3%	6.5%	-1.1
> CCN(CC)S(=O)(=O)c1ccc(OCC(=O)NCc2ccccc2)cc1
    9.3%	0.4	1.1%	5.6%	1.1%[38.3 µM]	-5.2%	0.9
> CCOC(=O)NNC(=O)CCn1c2c(c3ccccc31)CCCC2
    -2.9%	-1.1	-18.4%	4.6%	1.9%	16.3%	-9.1
> CC(C)c1ccc(NC(=O)C2Cc3c(-c4ccco4)ccnc3O2)cc1 (configuration not stated)
    ·	-1.4	-0.3%	·	0.7%	·	·
> Cc1cccc(C(=O)NCc2nnc(SCC(=O)Nc3nnc(C)s3)n2C)c1
    0.1%	-4.3	·	-11.0%	-0.6%	8.6%	-5.1
> CCCC(=O)Nc1cc(Cl)ccc1C
    -9.5%	-4.9	-1.8%	8.0%	0.8%	14.6%	-4.6
> COc1ccc(OC)c(NC(=O)c2oc3c(c2C)C(O)CC(C)(C)C3)c1 (configuration not stated)
    -14.7%	-6.8	-1.9%	?	0.3%	-1.2%	0.5
> COc1ccc(/C=C(/NC(=O)c2cccs2)C(=O)NC(C)(C)C)cc1OC
    3.6%	1.6	0.0%	-0.6%[15.4 µM]	-0.3%	19.7%	3.6
> O=C(O)CNC(=O)C12CC3CC(CC(Cl)(C3)C1)C2
    -8.1%	-0.1	-1.4%	-3.0%	3.7%	-1.4%	-1.4
> CCOc1ccc(NC(=O)CCN2C(=O)C3CCCCC3C2=O)cc1OCC (configuration not stated)
    10.2%	-2.9	1.8%	14.3%	4.3%	·	·
> COCCOC(=O)c1cc(C(=O)c2cc(Cl)ccc2O)coc1=N
    -16.0%	1.9	·	11.0%[15.4 µM]	-0.4%	9.2%	7.8
> CCOC(=O)C(=O)Nc1ccccc1C(=O)OCC
    ·	1.4	·	24.5%[15.4 µM]	2.1%	4.2%	-0.3
> CCc1nnc(NC(=O)c2sc3nc4c(cc3c2N)CCCCCC4)s1
    8.8%	3.5	0.3%	2.9%[15.4 µM]	9.4%	-16.5%	-2.0
> O=S(=O)(NC1=NCCC1)c1cccc(NS(=O)(=O)c2ccc(OC(F)(F)F)cc2)c1
    -3.6%	7.7	-9.0%	-5.0%	-1.4%	14.1%	5.4
> Nc1ccc(O)cc1C(=O)OCC(=O)c1ccc(C2CCCCC2)cc1
    -15.6%	12.8	60.8%	-1.7%[15.4 µM]	?	-20.0%	5.7
> CC1=C(C(=O)NCc2ccccc2)C(c2ccc(C)o2)n2ncnc2N1 (configuration not stated)
    2.9%	1.6	-1.7%	-25.9%	1.3%	16.5%	3.4
> O=C(Nc1ccc(F)cc1)C1CCCN(S(=O)(=O)c2ccc(-n3cnnn3)cc2)C1 (configuration not stated)
    -3.0%	-0.5	·	-5.5%[15.4 µM]	0.3%	17.6%	0.1
> CC(=O)Nc1cccc(NC(=O)c2cccc(S(=O)(=O)N3CCN(Cc4ccccc4)CC3)c2)c1
    -3.2%	-0.3	-1.5%	14.2%	-2.0%	·	·
> O=C(COC(=O)c1ccccc1Br)Nc1cc(S(=O)(=O)N2CCOCC2)ccc1N1CCCC1
    ·	-2.1	·	-1.3%[15.4 µM]	-1.5%	-3.5%	3.7
> Cc1ccc2cc3c(NC(=O)C4CCCO4)nn(CC(C)C)c3nc2c1 (configuration not stated)
    -24.6%	-1.0	-10.2%	?	0.1%	3.0%	1.2
> C=CSc1sc(Cl)c(N2CCOCC2)c1[N+](=O)[O-]
    -8.6%	8.6	·	-2.4%[15.4 µM]	0.3%	?	2.1
> COCCCn1c(=O)/c(=C\c2ccccc2OC(F)F)s/c1=C(/C#N)C(=O)NC(C)C
    -6.9%	-1.5	1.9%	-21.6%	21.7%	11.7%	?
> O=C(CSc1nc(C2CC2)nc2ccccc12)Nc1ccccc1
    3.0%	-2.9	·	-4.0%	5.0%	12.7%	-0.4
> CCc1cccc(C)c1NC(=O)CCCN1C(=O)NC(C)(C)C1=O
    -3.6%	5.7	-1.3%	-1.4%	1.8%	·	·
> CC(C)C(C(=O)NCC1CCCO1)N(Cc1ccccc1)C(=O)CNS(=O)(=O)c1ccccc1 (configuration not stated)
    ·	-0.5	·	22.4%[15.4 µM]	0.1%	1.0%	-3.3
> COc1cccc(-c2noc(CCC(=O)NCC3CCCO3)n2)c1 (configuration not stated)
    -5.9%	-3.1	-4.7%	17.5%	0.2%	11.6%	?
> COc1ccc(NC(=O)CC(CC(=O)O)c2cc(OC)c(OC)c(OC)c2)cc1 (configuration not stated)
    -25.1%	0.3	1.5%	-16.8%[15.4 µM]	-0.8%	10.2%	3.3
> CCC(C)NC(=O)CSc1c2c(nc3ccccc13)CCCC2 (configuration not stated)
    3.0%	-4.5	-0.7%	12.6µM*	2.3%	8.3%	-1.1
> CC(=O)Nc1ccc(N2C(=O)c3ccc(C(=O)Nc4nnc(SCc5ccc(F)cc5)s4)cc3C2=O)cc1
    3.6%	-7.7	-0.7%	-0.9%	-0.2%	13.7%	3.0
> Cc1ccccc1C(=O)N1CCC(C(=O)Nc2ccc3c(c2)OCO3)CC1
    7.8%	3.4	-1.3%	-27.1%	0.2%	9.9%	0.4
> CN1CCC(CNC(=O)Nc2ccccc2)(c2ccccc2)CC1
    19.7%	-1.7	·	-7.4%	0.5%	22.7%	3.4
> S=c1[nH]nc(-c2ccc(Cl)cc2)n1-c1cccnc1
    -5.4%	-4.3	2.8%	33.0%	2.4%	-17.8%	-0.9
> COc1cc(C(C(=O)NCC2CCCO2)N(C(=O)Cn2nnc3ccccc32)c2ccc(C(C)=O)cc2)ccc1O (configuration not stated)
    3.3%	4.2	·	-17.6%	2.4%	7.2%	-0.4
> O=C(N/N=C/c1cn(-c2ccccc2)nc1-c1ccc(F)cc1)c1ccc2c(c1)OCO2
    -9.2%	-1.9	?	29.2%	1.3%	5.0%	2.2
> Cn1nnnc1NCc1c(F)cccc1Cl
    -2.0%	2.5	0.3%	8.4%	·	-4.5%	3.1
> CC1(c2nc3ccccc3[nH]2)CCC(=O)N1Cc1cccs1 (configuration not stated)
    ·	-2.1	0.6%	·	-0.3%	·	·
> COc1ccc(S(=O)(=O)NCc2csc(C)n2)cc1
    6.1%	-11.4	0.5%	-2.7%	-1.1%	11.5%	-0.3
> COc1ccccc1-n1c(SC(C)C(=O)NCC2CCCO2)nc2cc(Cl)ccc2c1=O (configuration not stated)
    -21.2%	-0.3	-4.1%	-13.7%	2.4%	·	·
> Cc1ccc(S(=O)(=O)CCC(=O)OCCOc2cccc(Br)c2)cc1
    -18.5%	-4.2	-1.3%	8.6%	2.1%	·	·
> O=C(CSc1nccc(=O)[nH]1)Nc1ccc(N2CCOCC2)cc1
    -3.8%	-3.8	-1.7%	-1.4%	0.9%	-4.0%	1.8
> CCOc1ccc(OCCOc2ncnc3ccccc23)cc1
    5.2%[15.4 µM]	-2.3	-0.4%	0.3%	2.7%	12.1%	-0.7
> Nc1cccnc1Sc1cc(Cl)c(Cl)cc1Cl
    -25.1%	-2.9	-3.4%	2.8%	·	-0.6%	-0.5
> N#Cc1ccc(NC(=S)NC(=O)C2CC2)cc1
    ·	-4.3	-0.1%	?	2.5%	·	·
> CC1(C)C=Cc2cc(-c3coc4cc(O)cc(O)c4c3=O)cc(O)c2O1
    -24.2%	4.2	1.6%	·	2.5%	·	·
> Cc1ccc(Sc2ccncc2S(N)(=O)=O)cc1
    8.7%	-3.7	-1.7%	12.3%	1.2%	0.3%	2.4
> CC(=O)Nc1ccc(NC(=O)CCCCCN2C(=O)c3ccccc3C2=O)cc1
    3.5%	0.0	0.7%	?	-1.5%	9.9%	2.0
> COc1cc([N+](=O)[O-])ccc1NC(=O)NN1CCN(C)CC1
    2.8%	-3.6	-3.2%	24.0%	-1.2%	-2.2%	·
